Source: PubChem
miR-21 reporter: miR-21 reporter, rising signal; HeLa miR-21 FLuc reporter, luciferase, 48 h; Potency, µM (top dose mostly 38.3 µM), without a hit: at the highest dose reporter change, positive = more light; 340,000 tested, under 10 active; active = well fitted rising curve with a large enough effect; inconclusive = small, poorly fitted or top-dose-only effect; inactive = no such curve, though single readings can be large or run the other way;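 further: % of control where 0% means no effect; miR-21 action dims this reporter so a rising signal means less miR-21 action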
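Luminescence from a firefly luciferase reporter carrying a miR-21 binding site downstream, stably expressed under a CMV promoter in HeLa cells that make miR-21 endogenously, reports miRNA modulation after 48 h compound exposure up to approximately 40uM final.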
* hit, by the source's call; ? = inconclusive. This is a subset (hit frequency here may not be typical).

SMILES	miR-21 reporter
Cc1ccc(NC(=O)Cn2c(=O)n(CCCCC(=O)NCCc3ccccc3)c(=O)c3ccccc32)cc1	-4%
COc1ccc(Cl)cc1NC(=O)c1oc2ccc(S(=O)(=O)N3CCCCC3)cc2c1C	-2%
COc1ccc(N2CCN(C(=O)c3cn(C4CCCCC4)c(=O)c4c3c3ccccc3n4C)CC2)cc1	20%
O=C(c1ccc2c(c1)N(Cc1cccc(Cl)c1)C(=O)c1ccccc1S2)N1CCOCC1	25%
CCOc1ccccc1Nc1nc2ccccc2c2nncn12	2%
Cc1cccc(NC(=O)CSc2nc3c([nH]c4ccccc43)c(=O)n2C)c1C	14%
CCOc1ccc(-n2cc(-c3ccccc3)c3c(NCc4ccccc4)ncnc32)cc1	-3%
O=C(C1COc2ccccc2O1)N(Cc1cccnc1)c1nc2ccc(F)cc2s1 (centres undefined)	-35%
Cc1ccc(C(=O)CCC(=O)Nc2ccc(C)cc2C)cc1	-6%
COc1ccc(NC(=O)CN2C(=O)CCc3cc(S(=O)(=O)N4CCOCC4)ccc32)cc1Cl	-2%
Cc1cn2c(=O)cc(COC(=O)C(C)Oc3ccccc3)nc2s1 (centres undefined)	-2%
CCOC(=O)N1CCN(Cc2nc3cc(NC(=O)c4ccc(F)cc4)ccc3n2C(C)C)CC1	23%
Cc1c(Cl)ccc2sc(NC(=O)c3ccc(S(=O)(=O)N4CCCC4)cc3)nc12	1%
COc1ccc(C2CC(=O)c3cnc4c(-c5ccccc5)c(C)nn4c3C2)c(OC)c1 (centres undefined)	3%
CCc1cccc(NS(=O)(=O)c2ccc3c(c2)n(C)c(=O)c(=O)n3C)c1	14%
Cc1ccc(OCCSc2nc3ccc(NC(=O)c4ccco4)cc3s2)cc1	5%
CCN(CC)c1ccc(NC(=O)COCc2cc(-c3ccc4c(c3)OCO4)on2)c(C)c1	10%
O=C(NCCc1ccc(Cl)cc1)C(=O)NCC(c1ccco1)S(=O)(=O)c1ccccc1 (centres undefined)	-7%
Cc1ccc(C)c(-n2c3nc(=O)[nH]c(=O)c-3cc3c(C)nn(-c4ccccc4)c32)c1	-4%
Cn1c(CNC(=O)CSc2nc(-c3cccc(Cl)c3)nc3cc(=O)[nH]n23)nc2ccccc21	-1%
Cc1ccc(N2C(=O)CCSC23C(=O)N(Cc2ccc(F)cc2)c2ccccc23)cc1 (centres undefined)	10%
COc1cccc(N2CCN(C(=O)Cn3ncc4c3-c3ccccc3OC4)CC2)c1	4%
COc1cccc(NS(=O)(=O)c2ccc3[nH]cc(C(=O)NCCc4ccccc4)c(=O)c3c2)c1	2%
COc1ccc(N(C)C(=O)c2cc3c(s2)-c2ccccc2OC3)cc1	-13%
Cc1cccc(NC(=O)C(=O)NCC(c2cccnc2)N2CCc3ccccc3C2)c1C (centres undefined)	-2%

(listing goes on)
SMILES	miR-21 reporter
Cc1ccc(Cn2ccn(Cc3ccc(C)cc3)c(=O)c2=O)cc1	-5%
COc1ccc(Cn2c(C(=O)O)c(CNC3CCCCC3)c3ccc(C)cc32)cc1	3%
O=C(COc1ccc(F)cc1)OCc1cc(=O)n2nc(C3CC3)sc2n1	-6%
CCN(CC)CCNC(=O)c1ccc(-c2nc(CS(=O)(=O)c3ccc(C)cc3)c(C)o2)cc1	-9%
COc1ccc(C)c2sc(N3CCN(C(=O)c4ccco4)CC3)nc12	0%
CCc1nnc(SC(CC)C(=O)Nc2cc(C)ccc2C)c2cc3occc3n12 (centres undefined)	-4%
CCn1nc(C)c(CCN(C)C(=O)Nc2cc(C)cc(C)c2)c1C	-9%
COc1cc(OC)c2c(C)c(CC(=O)N3CCCCC3)c(=O)oc2c1	-2%
O=C(C1CCCN(S(=O)(=O)c2ccc(Br)s2)C1)N1CCN(c2cccc(Cl)c2)CC1 (centres undefined)	14%
Cc1cc(N2CCC(C)CC2)nc2ccc(NC(=O)Cc3ccccc3Br)cc12	8%
Cc1ccc(OCCn2nnc3sc4c(c3c2=O)CCC(C)C4)cc1 (centres undefined)	-2%
COc1ccccc1C1C=C(c2ccc(F)cc2)Nc2nc(-c3ccc(Cl)cc3)nn21 (centres undefined)	29%
Cc1ccc(CNC(=O)CCCCCn2c(=O)c3sccc3n(CC(=O)N3CCCCC3C)c2=O)cc1 (centres undefined)	-8%
CCOc1ccccc1NC(=O)Cn1c(=O)n(-c2ccc(Cl)cc2)c(=O)c2oc3ccccc3c21	9%
COc1ccc(Cn2ccn(Cc3cccc(OC)c3)c(=O)c2=O)cc1	?
CCOc1cc2[nH]c(=O)n(CCC(=O)N3CCN(c4cccc(Cl)c4)CC3)c(=O)c2cc1OCC	-7%
COc1cc(OC)c(N(C)C(=O)Cn2ncc3c([nH]c4ccccc43)c2=O)cc1Cl	-3%
CC(C)c1ccc(C2c3c(-c4ccccc4O)n[nH]c3C(=O)N2CCc2ccccc2)cc1 (centres undefined)	?
Cc1nc2ccc(S(=O)(=O)N(CC(=O)Nc3ccc(F)cc3F)Cc3ccccc3)cc2s1	2%
COc1ccc(N(CC(=O)N2CCc3ccccc3C2)S(=O)(=O)c2ccc(C)cc2)cc1Cl	-3%
CCOc1ccc(C(c2c(O)cc(C)n(Cc3ccco3)c2=O)N2CCN(c3ccccc3)CC2)cc1 (centres undefined)	-2%
COc1ccc(-c2nc3c(c(SCC(=O)Nc4cc(C)cc(C)c4)n2)Cc2c(CO)cnc(C)c2O3)cc1	-2%
CC(C)c1ccc(NC(=O)C2CCC(CNS(=O)(=O)c3ccc4c(c3)CCCC(=O)N4)CC2)cc1 (centres undefined)	29%
O=C(CCn1cnc2onc(-c3ccc(F)cc3)c2c1=O)N1CCN(c2ccccc2F)CC1	-2%
CCc1ccc(CNC(=O)c2cnc3c(C)cccn3c2=O)cc1	-22%

(further entries)
SMILES	miR-21 reporter
COc1ccccc1Nc1c2c(nc3ccc(NC(=O)/C=C/c4cc(OC)c(OC)c(OC)c4)cc13)CCCC2	?
Cc1ccc(CNC(=O)c2ccc3c(c2)nc(C)n3-c2cc(C)cc(C)c2)cc1	-2%
CCOc1cc(C(=O)OCc2cc(=O)n3nc(C4CC4)sc3n2)cc(OCC)c1OCC	-3%
CCSc1nc2n(n1)C(c1ccc(C(=O)O)cc1)C(C(=O)Nc1ccccc1C)=C(C)N2 (centres undefined)	-1%
CC(=O)c1ccc(NS(=O)(=O)c2ccc3c(c2)NC(=O)CCS3)cc1	-6%
COc1ccc(-c2cc(-c3ccccc3)nc(SCC(=O)Nc3ccccc3F)c2C#N)cc1	-9%
COc1ccc(NC(=O)CCCc2nnc3n(C(C)C)c(=O)c4sccc4n23)cc1Cl	-10%
C=C(C)Cn1c(SCC(=O)Nc2cccc(Cl)c2)nc2sc3c(c2c1=O)CCCC3	-6%
CCCN(CCC)S(=O)(=O)c1ccc2c(c1)N(CC(=O)NCc1ccc(F)cc1Cl)C(=O)CS2	?
CC(=O)N1CCCc2cc(S(=O)(=O)N3CCC(C(=O)Nc4ccc(C)cc4Cl)CC3)ccc21	5%
CCOC(=O)c1ccc(N2C(=O)c3n[nH]c(-c4ccco4)c3C2c2ccc(O)c(OC)c2)cc1 (centres undefined)	0%
Cc1cc(C)cc(NC(=O)Cn2nc(N3CCN(c4ccccc4)CC3)ccc2=O)c1	5%
CCc1ccc(NC(=O)Cc2c(C(=O)O)c(C)cn2C)cc1	-3%
Cc1cccc(C(=O)n2nc(-c3cccnc3)nc2NCc2ccccc2)c1	-5%
Cc1ccc(CNC(=O)CCN2C(=O)C(C)Oc3ccc(C)cc32)cc1 (centres undefined)	-1%
CC(C)(C)C(=O)CSc1nc2ccsc2c(=O)n1Cc1ccccc1F	7%
O=C(c1ccc2c(c1)N(Cc1ccccc1)C(=O)c1ccccc1S2(=O)=O)N1CCN(Cc2ccccc2)CC1	27%
COc1ccc(CCNCc2c(C(=O)O)c(C)n(Cc3cccc(Cl)c3)c2C)c(OC)c1OC	-4%
Cc1c(CCC(=O)NCCc2ccccc2F)c(=O)oc2cc(O)ccc12	-5%
CCNC(=O)c1c(NC(=O)Cc2coc3cc(C)cc(C)c23)sc2c1CCCC2	-10%
O=C(Nc1ccc(F)cc1Cl)c1cnc(N2CCOCC2)c2ccccc12	23%
Cc1ccc(NC(=O)C2CCCN2S(=O)(=O)c2ccc3c(c2)CCCC(=O)N3)cc1Cl (centres undefined)	16%
COc1ccc(CNS(=O)(=O)c2cnc(N)nc2)c(OC)c1	-3%
Cc1cccc(C)c1OCC(=O)N(Cc1ccc(Cl)cc1)CC1CCCO1 (centres undefined)	1%
OCc1cnc(SCc2ccccc2F)n1Cc1ccc(F)cc1	0%

Other records follow.
SMILES	miR-21 reporter
CCC(C(=O)Nc1cccc(C#N)c1)n1c(=O)c(-c2ccccc2NC(C)=O)nc2ccccc21 (centres undefined)	-7%
Cc1cc(C)c(NC(=O)CCCn2c(C)c3cnn(-c4ccccc4)c(=O)c3c2C)c(C)c1	-1%
COc1ccc(S(=O)(=O)N2CCCN(CC(=O)Nc3ccc(OC)cc3OC)CC2)cc1	1%
Cc1c(Cl)cccc1-c1ccc(CNCCCSc2nnnn2C)o1	-4%
CCCNC(=O)CN1C(=O)c2c(c3ccccc3n2C)C1c1ccc(OC)cc1 (centres undefined)	2%
Cc1ccc(-n2ncc(C(=O)N3CCN(c4ccccc4F)CC3)c2C2CCN(C(=O)OC(C)(C)C)CC2)cc1C	0%
Cc1ccc(-c2c(C(=O)NCCc3ccccc3)oc(=O)c3ccccc23)cc1	5%
COc1ccc(N2CCN(CCCNC(=O)c3nnc(Cc4ccccc4Cl)o3)CC2)cc1	4%
CNc1ccc(-c2nc(-c3ccco3)no2)cc1[N+](=O)[O-]	-33%
Fc1ccc(-c2nc3c4c(-c5ccccc5)c(-c5ccccc5)oc4ncn3n2)cc1	-1%
Cc1ccc(C(c2sc3nc(-c4ccco4)nn3c2O)N2CCCC2)cc1 (centres undefined)	-2%
Cc1ccccc1NC(=O)c1c(NC(=O)c2ccncc2)sc2c1CCC(C(C)(C)C)C2 (centres undefined)	1%
Cc1ccc(S(=O)(=O)c2cn(C)c3cc(N4CCN(c5ccccc5)CC4)c(F)cc3c2=O)cc1	1%
CNC(=O)C1CCC(Cn2c(=O)c3sccc3n(CC(=O)Nc3ccc(C)cc3C)c2=O)CC1 (centres undefined)	-4%
CCN(CC)S(=O)(=O)c1ccc2c(c1)N(CC(=O)NCc1ccccc1)C(=O)C1CCCCN21 (centres undefined)	0%
Cc1cccc(N2CCN(C(=O)Cn3c(C)c4cnn(-c5ccccc5)c(=O)c4c3C)CC2)c1C	?
Cc1ccc(C)c(CSc2nc3ncccc3[nH]2)c1	-2%
CC(=O)Nc1ccc(NCc2nnc3n2CCCCC3)cc1	6%
O=C1Nc2ccccc2C1Cc1ccc(Br)cc1 (centres undefined)	2%
COc1ccc(C(C)C)cc1S(=O)(=O)NCCc1c(C)[nH]c2c(Cl)cccc12	?
COc1ccc(/C=C(/C#N)c2nc(-c3ccc(-c4ccccc4)cc3)cs2)cc1	-3%
Cc1ccccc1OC(=O)c1nc(SCc2ccccc2F)ncc1Cl	2%
COc1ccc(Cl)cc1Nc1ncnc2c1c(-c1ccccc1)cn2-c1ccccc1	-1%
Cc1ccc(-n2ncc3c(NCCc4ccccc4)ncnc32)cc1Cl	-47%
COc1ccc(-c2[nH]c(-c3cccc(OC)c3)nc2SCC(=O)Nc2ccc3c(c2)OCO3)cc1	30%
CCCn1c2ccccc2c2cnn(CC(=O)NCCc3ccccc3)c(=O)c21	-3%
COc1ccc(CCNC(=O)CCCn2c(=O)c3ccccc3n(Cc3ccccc3)c2=O)cc1OC	15%
COc1ccc(-c2nnc(SCC(=O)Nc3cccc(C)c3)s2)cc1	0%
CCc1ccc(NC(=O)Cn2ccn(-c3ccc(OC)cc3)c(=O)c2=O)cc1	13%
COc1ccccc1CNC(=O)CCn1c(=O)c2ccccc2n(CC(=O)Nc2ccc(C)cc2Cl)c1=O	-5%

By substructure: the entries above containing an aryl thioether with sulfur outside any ring (15)
SMILES	miR-21 reporter
Cc1cccc(NC(=O)CSc2nc3c([nH]c4ccccc43)c(=O)n2C)c1C	14%
Cc1ccc(OCCSc2nc3ccc(NC(=O)c4ccco4)cc3s2)cc1	5%
Cn1c(CNC(=O)CSc2nc(-c3cccc(Cl)c3)nc3cc(=O)[nH]n23)nc2ccccc21	-1%
CCc1nnc(SC(CC)C(=O)Nc2cc(C)ccc2C)c2cc3occc3n12 (centres undefined)	-4%
COc1ccc(-c2nc3c(c(SCC(=O)Nc4cc(C)cc(C)c4)n2)Cc2c(CO)cnc(C)c2O3)cc1	-2%
CCSc1nc2n(n1)C(c1ccc(C(=O)O)cc1)C(C(=O)Nc1ccccc1C)=C(C)N2 (centres undefined)	-1%
COc1ccc(-c2cc(-c3ccccc3)nc(SCC(=O)Nc3ccccc3F)c2C#N)cc1	-9%
C=C(C)Cn1c(SCC(=O)Nc2cccc(Cl)c2)nc2sc3c(c2c1=O)CCCC3	-6%
CC(C)(C)C(=O)CSc1nc2ccsc2c(=O)n1Cc1ccccc1F	7%
OCc1cnc(SCc2ccccc2F)n1Cc1ccc(F)cc1	0%
Cc1c(Cl)cccc1-c1ccc(CNCCCSc2nnnn2C)o1	-4%
Cc1ccc(C)c(CSc2nc3ncccc3[nH]2)c1	-2%
Cc1ccccc1OC(=O)c1nc(SCc2ccccc2F)ncc1Cl	2%
COc1ccc(-c2[nH]c(-c3cccc(OC)c3)nc2SCC(=O)Nc2ccc3c(c2)OCO3)cc1	30%
COc1ccc(-c2nnc(SCC(=O)Nc3cccc(C)c3)s2)cc1	0%
